# Screens from PubChem BioAssay.
# GLA inh pH 4.5 – qHTS Assay for Inhibitors of Human alpha-Galactosidase at pH 4.5. Alpha-galactosidase A (Homo sapiens), P06280. purified enzyme, 4-MU-alpha-Gal fluorescence, pH 4.5. activity change, negative = inhibition, % at 105 µM. 230,000 tested, under 10 active. AID 1467, 2008; inconclusive = small, poorly fitted or top-dose-only inhibition, or a rising curve; inactive = flat fitted curve, though single readings scatter; no compound was filed as active;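 also: 0% = full activity with enzyme and -100% = basal without enzyme; dose as in the result columns while the protocol names 77 µM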
# miR-21 reporter – qHTS Assay for Modulators of miRNAs and/orActivators of miR-21; HeLa miR-21 FLuc reporter, luciferase, 48 h; 340,000 tested, under 10 active; AID 2288, 2010; Potency, µM (titrated, usually from 38.3 µM), for inactives: at the top dose reporter change, positive = more light; active = well fitted rising curve with a large enough effect; inconclusive = small, poorly fitted or top-dose-only effect; inactive = no such curve, though single readings can be large or run the other way;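 also: % of control where 0% means no effect; miR-21 action dims this reporter so a rising signal means less miR-21 action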
#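 HeLa cells stably expressing CMV-driven firefly luciferase with a downstream miR-21 binding sequence, endogenously expressing miR-21, were treated with titrations (up to about 40uM final) for 48 hours at 37 degree Celsius. Luciferase luminescence was read after lysis.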
# Rango-impB inh – qHTS Assay for Inhibitors of Rango (Ran-regulated importin-beta cargo) - Importin beta complex formation. Importin subunit beta-1 (Homo sapiens), Q14974. Rango CFP/YFP FRET sensor + importin beta, 45 min. Potency, µM (titrated, usually from 92.2 µM), for inactives: top-dose inhibition of complex formation. 0.031% of 340,000 active. AID 540263, 2011; active = rising FRET ratio curve, often small or poorly fitted; inconclusive = mostly compound fluorescence or quenching in the first reads; inactive = flat curves in all reads;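 also: potency is read from the fitted curve at half-maximal effect; 0% = DMSO wells and 100% = buffer wells lacking importin beta; nearly all actives have a fitted effect of over 15% in size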
# Target sequence (Q14974 whole entry, looked up): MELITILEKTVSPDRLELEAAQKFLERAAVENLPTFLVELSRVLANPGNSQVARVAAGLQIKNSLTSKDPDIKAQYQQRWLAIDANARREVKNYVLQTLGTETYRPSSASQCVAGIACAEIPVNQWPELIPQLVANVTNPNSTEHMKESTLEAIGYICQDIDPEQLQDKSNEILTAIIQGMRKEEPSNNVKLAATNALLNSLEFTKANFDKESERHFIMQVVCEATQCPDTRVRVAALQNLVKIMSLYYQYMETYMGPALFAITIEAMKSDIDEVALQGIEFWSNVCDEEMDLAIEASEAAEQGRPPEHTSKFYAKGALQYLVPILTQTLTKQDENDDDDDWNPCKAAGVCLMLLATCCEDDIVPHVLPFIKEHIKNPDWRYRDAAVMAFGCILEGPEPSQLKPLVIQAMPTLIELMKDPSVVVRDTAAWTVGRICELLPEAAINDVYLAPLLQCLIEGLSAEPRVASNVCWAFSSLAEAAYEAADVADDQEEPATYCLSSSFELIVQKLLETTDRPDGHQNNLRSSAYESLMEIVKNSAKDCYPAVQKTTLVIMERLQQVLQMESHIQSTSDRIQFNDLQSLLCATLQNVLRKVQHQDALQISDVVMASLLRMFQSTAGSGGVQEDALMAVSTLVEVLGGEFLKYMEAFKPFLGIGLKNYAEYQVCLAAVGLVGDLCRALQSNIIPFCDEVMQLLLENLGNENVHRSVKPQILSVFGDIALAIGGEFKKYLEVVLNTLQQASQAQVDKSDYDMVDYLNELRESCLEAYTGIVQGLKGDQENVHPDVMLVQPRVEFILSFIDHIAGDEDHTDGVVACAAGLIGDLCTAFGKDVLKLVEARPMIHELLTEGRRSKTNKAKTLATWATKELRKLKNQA
#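 FRET biosensor (snurportin 1 IBB flanked by EYFP and cerulean), 50 nM, with compound 5 min, then 0.125 microM importin beta in PBS, 1 mM DTT, 0.02% Tween-20, 0.1% BSA. CFP/YFP ratio read after 45 min at room temperature; pre-read flags interference.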
# Rango release inh – qHTS Assay for Inhibitors of RanGTP induced Rango (Ran-regulated importin-beta cargo) - Importin beta complex dissociation. 0.071% of 340,000 active. Biochemical FRET Rango-importin beta, RanGTP-induced dissociation. Snurportin-1 (Homo sapiens) + GTP-binding nuclear protein Ran (Homo sapiens) + Importin …. Potency, µM (top dose mostly 46.1 µM), without a hit: at the highest dose activity change, negative = inhibition. AID 540253, 2011; active means falling FRET ratio curve, often poorly fitted, with flat reads before Ran was added; inconclusive means other falling curves, or compound fluorescence or quenching; inactive means flat or rising ratio curve;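 also: potency is read from the fitted curve at half-maximal effect; % of control where 0% means no effect; nearly all actives have a fitted effect of over 45% in size; -100% = wells without RanGTP and RCC1; the record marks most hits as doubtful in a second field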
#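 Rango FRET biosensor (snurportin-1 IBB flanked by N-terminal EYFP and C-terminal CFP10) at 0.1 uM, with 0.25 uM importin beta in PBS, 1mM DTT, 0.02% Tween-20, 0.1% BSA. 0.6 uM Ran, 2mM GTP and 0.2 uM RCC1 were then added for 45 min at room temperature. Inhibition read as loss of FRET rise.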
# * = called active by the depositor; ? = inconclusive; · = no result given; & = joins results of further samples.
GLA inh pH 4.5	miR-21 reporter	Rango-impB inh	Rango release inh	structure
·	-4%	-3.2%	-5%	CSCC[C@H](NC(=O)[C@H](Cc1ccccc1)n1c(=O)[nH]c2ccccc2c1=O)C(=O)N[C@@H](Cc1ccccc1)C(=O)O
7&0	-19%	-2.0%	-15%	Cc1cc(CNC(=O)C(C)Cc2ccccc2)nn1C (centres undefined)
·	·	2.3%	-3%	CC(=O)Nc1ccc(C=NN=C2c3ccccc3-c3ccccc32)cc1
6	12%	?	-26%	CCOc1ccccc1NC(=O)CC1Nc2ccccc2NC1=O (centres undefined)
10	-7%	-0.5%	?	COc1ccc(/C=C/c2nnc(NC(=O)CSc3ccc(Cl)cc3)s2)cc1
-3	-1%	·	·	O=c1oc2ccc([N+](=O)[O-])cc2c(N2CCOCC2)c1[N+](=O)[O-]
0	-15%	-1.7%	-2%	O=C1OC(Cc2ccncc2)C(O)=C1C1=NCCCN1 (centres undefined)
4	-3%	0.5%	3%	COC(C(=O)Nc1cc([N+](=O)[O-])ccc1C)c1ccccc1 (centres undefined)

# Record cards, from the list above:
# Cc1cc(CNC(=O)C(C)Cc2ccccc2)nn1C (centres undefined) across the screens: GLA inh pH 4.5 = 7&0; miR-21 reporter = -19%; Rango-impB inh = -2.0%; Rango release inh = -15%
# CSCC[C@H](NC(=O)[C@H](Cc1ccccc1)n1c(=O)[nH]c2ccccc2c1=O)C(=O)N[C@@H](Cc1ccccc1)C(=O)O across the screens: GLA inh pH 4.5 = ·; miR-21 reporter = -4%; Rango-impB inh = -3.2%; Rango release inh = -5%

# The listing continues:
GLA inh pH 4.5	miR-21 reporter	Rango-impB inh	Rango release inh	structure
-1	-5%	-3.3%	10%	CCOC(=O)CCc1c(C)c2ccc(OCC(=O)N(CC)CC)c(C)c2oc1=O
·	·	1.3%	-21%	O=C(c1c(O)cc(O)cc1O)C1c2c(cc(O)c3c2O[C@H](c2ccc(O)cc2)[C@@H](O)C3)OC1c1ccc(O)cc1 (some centres undefined)
·	·	0.3%	0%	COc1ccc(OC)c(S(=O)(=O)Nc2cccc(O)c2)c1
-10	3%	-5.9%	0%	O=C(CC(c1ccccc1)c1ccccc1O)NCc1ccccc1Cl (centres undefined)
3	-25%	?	-26%	C=CCOC(=O)c1cc(-c2ccc(/C=C3\C(=O)NC(=O)C(C#N)=C3C)o2)ccc1Cl
-8	-27%	?	8%	COc1ccc(N=Nc2c(N)n[nH]c2N)cc1
-4	4%	-0.5%	-8%	CCOC(=O)/C=C/C(=O)OCC(=O)Nc1c(Cl)cccc1Cl
·	·	2.8%	8%	CCOc1ccccc1Nc1cc(C)nc2ccc(C)cc12
-5&2	·	-3.2%	-10%	Cn1c(=O)c2[nH]c(C3CCCC3)nc2n(C)c1=O
-1	20%	3.5%	-4%	COc1ccc2c(c1OC)C(=O)N1c3ccccc3C(=O)N(c3ccccc3)C21 (centres undefined)
-5	-1%	2.0%	0%	CC(C(=O)Nc1cccnc1)c1ccc([N+](=O)[O-])cc1 (centres undefined)
·	·	0.9%	6%	O=C1C=C(c2cnc3ccccc3c2)C[C@@H](c2ccc3c(c2)OCO3)C1
-9	7%	1.8%	-7%	CC1(C)CC(=O)c2c(S(C)(=O)=O)sc(Br)c2C1
4	-21%	-5.1%	6%	CC1(C)Cc2c(c(N3CCOCC3)nc3sc(C#N)c(N)c23)CS1
4	4%	-0.6%	-9%	CSCCOC(=O)COc1ccc(/C=N/NC(=O)c2c(Cl)cnn2C)cc1
0	2%	-0.1%	1%	COCCN(C(=O)CC1C(=O)NCCN1CC(c1ccccc1)c1ccccc1)C(C)C (centres undefined)
·	-1%	?	-1%	CC1(C)CC(=O)c2sc(NS(=O)(=O)c3ccc(Cl)cc3)nc2C1
2	-27%	0.7%	2%	CC#CC(=O)N1CCC(CO)(CCc2ccccc2)CC1
·	-10%	0.3%	4%	O=C(CSc1nnc(NC(=O)C2CCC2)s1)Nc1ccccc1F
·	-2%	-0.2%	-10%	COc1ccc(NC(=O)N2CCNC(=O)C2CC(=O)Nc2ccc(F)cc2)cc1 (centres undefined)
·	·	5.6%	0%	C=C1CCN(c2ccc(C(=O)NCCC)cc2[N+](=O)[O-])CC1
2	-3%	-0.9%	3%	O=C(CNCC1CCCO1)NCc1ccco1 (centres undefined)
5	-5%	-3.2%	-1%	O=C(Nc1ccc2c(c1)C(=O)N(c1ccccc1)C2=O)C1CCCO1 (centres undefined)
·	0%	2.9%	1%	Cc1oc2c(CN3CCCCC3)c(O)ccc2c(=O)c1-c1ccc(Br)cc1
-19	-2%	0.5%	15%	O=C(CN1C(=O)C2C3C=CC(C3)C2C1=O)Nc1ccc(C(=O)O)cc1 (centres undefined)
·	-46%	2.4%	1%	COC(=O)c1cnc(SCC(=O)c2ccccc2)n1C
-2	1%	3.7%	16%	CCC(C)NC(=O)c1ccccc1NS(=O)(=O)c1ccc(OC)c(OC)c1 (centres undefined)
·	5%	0.1%	2%	CCc1ccccc1N1C(=O)CN(Cc2cc(OC)c(OC)c(OC)c2)C1=S
·	-50%	-0.5%	4%	Cc1cc(NC(C)c2ccccc2)n2ncc(-c3ccccc3)c2n1 (centres undefined)
·	-3%	-2.1%	?	CC(C)(CO)Nc1ncnc2onc(-c3ccc(F)cc3)c12
2	0%	-0.1%	-8%	Nc1nc(=S)n(-c2ccccc2)[nH]1
5	-10%	0.0%	9%	CCOC(=O)N1CCN(C(=O)CN(c2ccc(C)c(C)c2)S(=O)(=O)c2ccccc2)CC1
·	-25%	0.1%	18%	COc1ccc(C(=O)NN=C2CCCC2)c(OC)c1
·	1%	2.3%	1%	NC(=O)CC(NC(=O)Cc1ccc(Cl)cc1)c1ccc(N2CCC(Cc3ccccc3)CC2)c([N+](=O)[O-])c1 (centres undefined)
?	-41%	?	-10%	Cc1cc(C)n(-c2cc(C(C)(C)C)nc3c(-c4ccc(Cl)cc4)cnn23)n1
3	0%	-3.3%	9%	CC(C)(C)NC(=O)CSc1nnc(NC(=O)CCn2cnc3ccccc3c2=O)s1
·	·	-0.6%	-15%	CC[C@]12CCCN3CCc4c(n(c5ccccc45)C(=O)C1)[C@@H]32
·	·	-1.3%	9%	CC[C@]1(c2ccccc2OC)ON(c2ccccc2C(F)(F)F)C1=O
0	-9%	0.5%	-6%	CCOC(=O)c1[nH]c2ccc(F)cc2c1NC(=O)CCN1CCOCC1
4	2%	-0.3%	?	Cc1ccc(C)c(N(CC(=O)NC2CCCC2)C(=O)c2cc3cc4cccc(C)c4nc3s2)c1

# Molecules listed so far containing a furan ring, fused or not:
GLA inh pH 4.5	miR-21 reporter	Rango-impB inh	Rango release inh	structure
3	-25%	?	-26%	C=CCOC(=O)c1cc(-c2ccc(/C=C3\C(=O)NC(=O)C(C#N)=C3C)o2)ccc1Cl
2	-3%	-0.9%	3%	O=C(CNCC1CCCO1)NCc1ccco1 (centres undefined)

# More results
GLA inh pH 4.5	miR-21 reporter	Rango-impB inh	Rango release inh	structure
-8	-7%	?	-20%	O=C(N/N=C\c1ccc(-c2ccc([N+](=O)[O-])cc2)o1)c1ccc2c(c1)OCO2
-3	-1%	1.9%	22%	Cc1ccc(S(=O)(=O)N(C)CC(=O)OCC(=O)Nc2ccccc2)cc1
·	-41%	-3.4%	2%	COc1ccc(C(=O)Nc2ccc(C3(C#N)CCCC3)cc2)cc1OC
-12	0%	0.9%	-8%	Cc1ccccc1NC1=C(Cl)C(=O)N(C2CCCCC2)C1=O
7	16%	·	·	CCC(C)NC(=O)c1c(N)n(/N=C/c2cccs2)c2nc3ccccc3nc12 (centres undefined)
4	-49%	4.3%	10%	CC(C)(C)c1cc(-n2ccnc2)n2ncc(-c3ccc(Cl)cc3)c2n1
·	-1%	-0.4%	2%	Cc1cccc(/C=N/n2c(-c3ccccc3)n[nH]c2=S)c1O
-1	5%	?	8%	COc1ccccc1OCC(=O)NN=C(Cc1ccccc1)Cc1ccccc1
8	-24%	-0.2%	-2%	O=c1c2ccccc2nc(-c2cccs2)n1-c1ccc2ccccc2c1
·	2%	-0.6%	-6%	Cc1cccc(NC(=O)CSCC(=O)Nc2cc(Cl)ccc2N2CCN(C)CC2)c1
·	24%	?	?	CCc1ccc(Nc2n[n+](-c3ccccc3)c(-c3ccc(N(CC)CC)cc3)s2)cc1
5	-1%	-1.3%	-5%	CCOc1ccc(NC(=O)C[n+]2ccc(N(C)C)cc2)cc1
6	15%	?	1%	CC(=O)/C(C#N)=C1\NC(=O)C(Cc2ccc(C)c(C)c2)S1 (centres undefined)
·	-32%	0.3%	-10%	Oc1cccc(N2Cc3ccccc3C2)c1
·	1%	-0.9%	1%	O=C(NNS(=O)(=O)c1cc(Cl)c(Cl)cc1Cl)c1cccnc1
·	3%	4.4%	-8%	Oc1cccc(/C=C/c2ccc3cccc(O)c3n2)c1
·	·	-0.7%	0%	Cn1nc(-c2ccccc2)nc1-c1ccccc1
4	-1%	6.1%	-8%	O=C(O)CCC(=O)Nc1ccc(-n2ccc(C(F)(F)F)n2)cc1
-1	13%	-1.4%	1%	Cc1c(C#N)c2ccccc2n1CC(=O)NCCc1c[nH]c2ccccc12
-2	-27%	?	-6%	N#Cc1nc(COc2ccc(Br)cc2)oc1N1CCCCCC1
0	-10%	3.9%	-5%	NC(=O)CSc1nnc(-c2ccccc2Br)n1-c1cccc(C(F)(F)F)c1
·	·	2.6%	-1%	CCOC(=O)c1ccccc1NC(=O)COC(=O)C1CC(=O)N(c2ccc3c(c2)OCCO3)C1 (centres undefined)
·	-9%	1.0%	13%	Cc1ccc(C(=O)COC(=O)C(C)N2C(=O)C3C4CCC(C4)C3C2=O)cc1C (centres undefined)
·	·	0.1%	9%	O=C(NCc1ccncc1)C(=O)NCC1OCCN1S(=O)(=O)c1cc(F)ccc1F (centres undefined)
-6	-1%	1.1%	-6%	CN(C)Cc1c(O)ccc2[nH]cnc12
-1	0%	1.0%	18%	CCN(CC)S(=O)(=O)c1ccc2c(c1)nc(CCC(=O)OCc1c(C)noc1C)n2C
4	-17%	-3.7%	18%	COc1cc(/C=N/O)cc(Br)c1OCc1cccc(Cl)c1
-6	2%	-0.6%	-2%	O=C(N/N=C1\CC2CC=CC12)c1ccc(Br)cc1 (centres undefined)
14	-8%	-0.5%	-8%	CCOC(=O)N/N=C/c1c[nH]c2ccccc12
2	-3%	0.7%	1%	CC(C)(C)NC(=O)C(c1ccccc1)N(C(=O)c1csnn1)C1CC1 (centres undefined)
-4	-4%	-0.4%	0%	CC(C)(C)C(=O)Cn1c(=O)n(CC2CCCO2)c(=O)c2ccccc21 (centres undefined)
11	-31%	?	?	O=C(O)c1ccc(N=c2oc3cc(O)ccc3cc2C(=O)NCc2ccccc2)cc1
-7	-66%	-0.2%	-11%	CCc1nc(NC(C)(C)C)c2cnn(-c3ccccc3)c2n1
1	0%	-2.7%	-15%	COc1ccc(Br)cc1CNC(=O)Nc1cccs1
2	-27%	-1.2%	11%	Cc1ccc(NC(=O)Nc2ccc(S(N)(=O)=O)cc2)cc1
-18	2%	1.8%	1%	O=C(N/N=C/c1ccc(Br)o1)c1cncc(Br)c1
6	-34%	-1.1%	-17%	O=C(COc1ccc2ccc(=O)oc2c1)c1ccccc1
·	-8%	0.3%	13%	Cc1c(C)c2ccc(OCC(=O)NCCN3CCOCC3)c(C)c2oc1=O
·	·	-0.3%	0%	COC(=O)[C@H](CCSC)NC(=O)Cn1cnc2c(NCc3ccccc3)ncnc21
-7	-5%	-1.5%	1%	O=c1c(-c2ccc(Oc3ccccc3)cc2)[n+]([O-])c2ccccc2n1OCc1ccccn1
·	-1%	0.0%	11%	CN(CC(=O)NC1CCCCCC1)S(=O)(=O)c1ccc(F)cc1
4	1%	2.6%	1%	COCc1[nH][nH]c(=O)c1C=Nc1ccc(Cl)cc1

# Only part of the results is shown. The share of hits here may be higher or lower than overall.
